NOMO-1 viab – NOMO-1 AML cell viability reduction, primary screen, STK33 inhibitor project, CellTiter-Glo luminescence; NOMO-1 AML viability, 72 h; inhibition, % (no concentration beside the values); hit rate 7.5% among 37,000; AID 2330, 2010;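 active means most replicates above 80%; inconclusive means exactly half above 80%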;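 further: wells of about 30 µL received 25 nL stock; 0% = median of vehicle wells and 100% = reference inhibitor level; the first replicate is given; inactives centre near 10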
* hit, by the source's call; ? = inconclusive. A portion of the library (hit frequency here may not be typical).

SMILES	NOMO-1 viab
Cc1noc(C)c1S(=O)(=O)Nc1cccc2c1O[C@@H](CN(C)S(=O)(=O)c1cccs1)[C@@H](C)CN([C@@H](C)CO)C2=O	3
CCn1c2ccccc2n2c(SC(C)C(=O)O)nnc12 (stereo unspecified)	17
Cc1ccc(-c2noc(CCC(=O)Nc3ccccc3[N+](=O)[O-])n2)cc1	7
Cc1cc(C(F)(F)F)nc(SCc2cccc(C(=O)O)c2)n1	8
CN1CCN(C(=O)c2ccccc2N(Cc2ccccc2)S(C)(=O)=O)CC1	-18
Cc1noc(C)c1S(=O)(=O)N(C)C[C@H]1Oc2ccc(NC(=O)Cc3ccccc3)cc2CC(=O)N([C@@H](C)CO)C[C@@H]1C	6
C[C@@H]1CC[C@@]23CCC4(C)[C@@](C=CC5[C@@]6(C)CC[C@H](O)C(C)(C)C6CC[C@]54C)(OC2=O)C3[C@H]1C (stereo partly specified)	33
CC(C)NC(=O)Nc1ccc2c(c1)CC(=O)N([C@@H](C)CO)C[C@@H](C)[C@@H](CN(C)C(=O)NC1CCCCC1)O2	-5
C[C@@H]1CN([C@H](C)CO)C(=O)c2cc(NC(=O)Nc3ccc4c(c3)OCO4)ccc2O[C@H]1CN(C)CC1CCCCC1	-5
COc1ccc(NC(=O)N(C)C[C@H]2Oc3c(cccc3N(C)C)C(=O)N([C@@H](C)CO)C[C@@H]2C)cc1	32
C[C@@H]1CN([C@H](C)CO)C(=O)c2cc(NS(=O)(=O)c3cccs3)ccc2O[C@H]1CN(C)C(=O)Nc1ccc2c(c1)OCO2	-13
CC(=O)Nc1cccc(NC(=O)c2cc(-c3ccc(C)o3)nc3ccccc23)c1	34
C[C@H]1CN([C@@H](C)CO)C(=O)c2cccc(NS(C)(=O)=O)c2O[C@H]1CN(C)S(C)(=O)=O	-5
C[C@H](CO)N1C[C@H](C)[C@@H](CN(C)C)Oc2ccc(NC(=O)Cc3ccccc3)cc2C1=O	6
CNC(=O)Nc1ccc(C(C)(C)C)cc1Br	-7
CS(=O)(=O)N(CC(=O)Nc1ccccc1Br)c1ccc(Oc2ccccc2)cc1	41
C[C@@H]1CN([C@@H](C)CO)C(=O)c2cccc(NS(=O)(=O)c3ccc(Cl)cc3)c2O[C@@H]1CN(C)C(=O)Nc1cccc2ccccc12	65
C[C@H](CO)N1C[C@H](C)[C@@H](CN(C)S(=O)(=O)c2ccc(F)cc2)Oc2c(NC(=O)c3ccc(-c4nccs4)cc3)cccc2C1=O	3
Cc1noc(C)c1S(=O)(=O)Nc1ccc2c(c1)CC(=O)N([C@H](C)CO)C[C@H](C)[C@H](CN(C)Cc1ccc(C(=O)Nc3ccccc3N)cc1)O2	142*
C[C@H]1CN([C@@H](C)CO)C(=O)Cc2cc(NS(=O)(=O)c3ccccc3)ccc2O[C@@H]1CN(C)Cc1ccc(-c2ccccc2)cc1	113*
C=CCN1C(=O)NC2(CCCCC2)C1=O	-9
Cc1cc(C)nc(NS(=O)(=O)c2ccc(Nc3nc(-c4ccc(O)cc4)cs3)cc2)n1	51
COc1cc(O)c2c(=O)c(OC)c(-c3cc(O)c(OC)c(OC)c3)oc2c1	28
C[C@H](CO)N1C[C@H](C)[C@H](CN(C)S(=O)(=O)c2cccs2)Oc2ccc(NS(C)(=O)=O)cc2C1=O	-2
C[C@@H]1CCCCO[C@H](CN(C)C(=O)Nc2ccc3c(c2)OCO3)[C@@H](C)CN([C@H](C)CO)C(=O)c2cc(NC(=O)NC3CCCCC3)ccc2O1	11
Cc1noc(NS(=O)(=O)c2ccc(NC(=O)C3COc4ccccc4O3)cc2)c1C (stereo unspecified)	-22
COc1ccc(S(=O)(=O)N(C)C[C@H]2Oc3ccc(NC(=O)CCN4CCOCC4)cc3C(=O)N([C@H](C)CO)C[C@H]2C)cc1	15
CCN1CCOC(CC(=O)Nc2cc(C(=O)OC)cc(C(=O)OC)c2)C1=O (stereo unspecified)	3
C[C@H](CO)N1C[C@H](C)[C@@H](CN(C)S(=O)(=O)c2ccc(Cl)cc2)Oc2ccc(NC(=O)NC3CCCCC3)cc2C1=O	-7
C[C@@H]1CN([C@@H](C)CO)C(=O)c2cccc(NC(=O)Nc3ccc(C(F)(F)F)cc3)c2O[C@@H]1CN(C)C	18

Three compounds from above, sorted by formula weight, highest first.
SMILES	NOMO-1 viab
Cc1noc(C)c1S(=O)(=O)Nc1cccc2c1O[C@@H](CN(C)S(=O)(=O)c1cccs1)[C@@H](C)CN([C@@H](C)CO)C2=O	3
CS(=O)(=O)N(CC(=O)Nc1ccccc1Br)c1ccc(Oc2ccccc2)cc1	41
C[C@@H]1CC[C@@]23CCC4(C)[C@@](C=CC5[C@@]6(C)CC[C@H](O)C(C)(C)C6CC[C@]54C)(OC2=O)C3[C@H]1C (stereo partly specified)	33

(further entries)
SMILES	NOMO-1 viab
C[C@@H]1CN([C@H](C)CO)C(=O)c2cc(NC(=O)c3ccncc3)ccc2O[C@H]1CN(C)Cc1ccc(Oc2ccccc2)cc1	67
C[C@H](CO)N1C[C@H](C)[C@H](CN(C)S(=O)(=O)c2ccc(F)cc2)Oc2ccc(NS(=O)(=O)c3cccs3)cc2CC1=O	40
N/C(C[n+]1ccccc1)=N\O	-18
C[C@H]1CN([C@@H](C)CO)C(=O)Cc2cc(NC(=O)Cc3ccccc3)ccc2O[C@H]1CN(C)S(=O)(=O)c1ccccc1	-6
C[C@H]1CN([C@@H](C)CO)C(=O)Cc2cc(NS(=O)(=O)c3cccs3)ccc2O[C@H]1CN(C)C(=O)Nc1ccc(F)cc1	2
COc1ccc(C)cc1S(=O)(=O)N(C)CC(=O)N1CCN(C)CC1	8
C[C@@H]1CN([C@H](C)CO)C(=O)Cc2cc(NC(=O)Nc3ccc4c(c3)OCO4)ccc2O[C@@H]1CN(C)Cc1ccc(C(=O)Nc2ccccc2N)cc1	97*
CNC[C@H]1Oc2ccc(NC(=O)Nc3ccc4c(c3)OCO4)cc2C(=O)N([C@@H](C)CO)C[C@@H]1C	8
COc1ccc(NC(=O)Nc2cccc3c2O[C@H](CN(C)Cc2ccc(Oc4ccccc4)cc2)[C@H](C)CN([C@@H](C)CO)C3=O)cc1	113*
Cc1ccc(NC(=O)CSc2nnc(-c3ccncc3)n2C)c(Br)c1	-11
C[C@@H]1CN([C@H](C)CO)C(=O)c2cc(NS(=O)(=O)c3cn(C)cn3)ccc2O[C@@H]1CN(C)C(=O)NC1CCCCC1	0
CNC[C@@H]1Oc2ccc(NC(=O)C3CCCCC3)cc2C(=O)N([C@@H](C)CO)C[C@H]1C	11
Cc1[nH]c(=S)[nH]c(=O)c1Cc1ccc(C(=O)O)o1	9
CCC1(c2cccc(OC(=O)C3CCCCC3)c2)CCCCN(C)C1=O (stereo unspecified)	-18
Cc1ccc(S(=O)(=O)Nc2ccc3c(c2)C(=O)N([C@@H](C)CO)C[C@H](C)[C@@H](CN(C)C(=O)Nc2cccc4ccccc24)O3)cc1	6

Entries above that contain an aryl methoxy group:
SMILES	NOMO-1 viab
COc1ccc(NC(=O)N(C)C[C@H]2Oc3c(cccc3N(C)C)C(=O)N([C@@H](C)CO)C[C@@H]2C)cc1	32
COc1cc(O)c2c(=O)c(OC)c(-c3cc(O)c(OC)c(OC)c3)oc2c1	28
COc1ccc(S(=O)(=O)N(C)C[C@H]2Oc3ccc(NC(=O)CCN4CCOCC4)cc3C(=O)N([C@H](C)CO)C[C@H]2C)cc1	15
COc1ccc(C)cc1S(=O)(=O)N(C)CC(=O)N1CCN(C)CC1	8
COc1ccc(NC(=O)Nc2cccc3c2O[C@H](CN(C)Cc2ccc(Oc4ccccc4)cc2)[C@H](C)CN([C@@H](C)CO)C3=O)cc1	113*

The list continues:
SMILES	NOMO-1 viab
OC(COc1ccccc1F)Cn1cnc2ccccc21 (stereo unspecified)	19
COc1ccc(S(=O)(=O)Nc2cccc3c2O[C@@H](CN(C)S(C)(=O)=O)[C@@H](C)CN([C@H](C)CO)C3=O)cc1	19
CC(C)NC(=O)Nc1ccc2c(c1)C(=O)N([C@H](C)CO)C[C@H](C)[C@H](CN(C)Cc1ccc(Cl)c(Cl)c1)OCCCC[C@@H](C)O2	101*
Cc1noc(C)c1NC(=O)Nc1ccc2c(c1)CC(=O)N([C@@H](C)CO)C[C@@H](C)[C@@H](CN(C)C(=O)Nc1ccc3c(c1)OCO3)O2	8
C[C@H](CO)N1C[C@H](C)[C@H](CN(C)Cc2ccncc2)Oc2ccc(NC(=O)CCC(F)(F)F)cc2C1=O	28
C[C@@H]1CN([C@H](C)CO)C(=O)Cc2cc(NC(=O)Cc3ccccc3)ccc2O[C@H]1CN(C)S(=O)(=O)c1ccc(F)cc1	21
Cc1ccccc1-c1nnc(-c2cc(C(C)(C)C)nn2Cc2ccc(F)cc2)o1	20
CCOC(=O)c1c(CN2CCCCC2)n(-c2ccccc2)c2ccc(OC(C)=O)cc12	27
O=C(COc1ccc(Br)cc1)Nc1cccc(-c2nnc(-c3ccccc3)o2)c1	24
C[C@@H]1CCCCO[C@H](CN(C)S(=O)(=O)c2ccccc2)[C@@H](C)CN([C@H](C)CO)C(=O)c2cc(NC(=O)c3ccncc3)ccc2O1	22
COc1ccc(N2C(=O)CC(c3cn(Cc4ccccc4)c4ccccc34)C2=O)cc1 (stereo unspecified)	18
Cc1noc(C)c1S(=O)(=O)N(C)C[C@@H]1Oc2ccc(NC(=O)CCCN(C)C)cc2C(=O)N([C@@H](C)CO)C[C@@H]1C	-12
C[C@H]1CN([C@@H](C)CO)C(=O)c2cccc(NS(=O)(=O)c3cccs3)c2O[C@@H]1CN(C)S(=O)(=O)c1ccc(F)cc1	-7
C[C@H](CO)N1C[C@H](C)[C@H](CN(C)Cc2ccc(C(=O)O)cc2)Oc2c(NS(=O)(=O)c3cn(C)cn3)cccc2C1=O	-4
Cc1cc(C(=O)Nc2cccc3c2O[C@@H](CN(C)CC2CC2)[C@H](C)CN([C@@H](C)CO)C3=O)n(C)n1	-8

A few values from above:
Value of CCOC(=O)c1c(CN2CCCCC2)n(-c2ccccc2)c2ccc(OC(C)=O)cc12 in NOMO-1 viab: 27
Value of CC(C)NC(=O)Nc1ccc2c(c1)C(=O)N([C@H](C)CO)C[C@H](C)[C@H](CN(C)Cc1ccc(Cl)c(Cl)c1)OCCCC[C@@H](C)O2 in NOMO-1 viab: 101*

Going on with the list.
SMILES	NOMO-1 viab
C[C@H]1CN([C@@H](C)CO)C(=O)c2cccc(NC(=O)C3CCCCC3)c2O[C@@H]1CN(C)CC1CC1	39
C[C@@H]1CN([C@H](C)CO)C(=O)c2cccc(NS(=O)(=O)c3cn(C)cn3)c2O[C@@H]1CN(C)S(=O)(=O)c1ccccc1	0
Cc1nnc2sc(-c3ccccc3NC(=S)NC(=O)CC34CC5CC(CC(C5)C3)C4)nn12	24
Cc1noc(C)c1S(=O)(=O)Nc1ccc2c(c1)C(=O)N([C@H](C)CO)C[C@H](C)[C@@H](CN(C)C(=O)NC1CCCCC1)O2	-7
C[C@@H]1CN([C@H](C)CO)C(=O)c2cc(NC(=O)Cc3cn(C)c4ccccc34)ccc2O[C@@H]1CN(C)CC1CC1	13
O=C(COc1ccccc1[N+](=O)[O-])Nc1ccc2oc(-c3ccccc3F)nc2c1	-6
COc1ccc(OC)c(NC(=O)CSc2nnc(-c3ccc(Cl)cc3Cl)n2C)c1	1
CC(NS(=O)(=O)c1ccc(F)cc1)C(=O)Nc1ccc(C(N)=O)cc1 (stereo unspecified)	13
CNC[C@H]1Oc2ccc(N(C)C)cc2C(=O)N([C@@H](C)CO)C[C@@H]1C	-6
Cc1cc(C(=O)Nc2cccc3c2O[C@H](CN(C)C(=O)NC2CCCCC2)[C@H](C)CN([C@H](C)CO)C3=O)n(C)n1	3
C[C@H]1CN([C@@H](C)CO)C(=O)c2cccc(NS(=O)(=O)c3cn(C)cn3)c2O[C@@H]1CN(C)C(=O)Nc1ccc2c(c1)OCO2	0
C[C@H]1CN([C@@H](C)CO)C(=O)Cc2cc(NC(=O)Nc3ccc(C(F)(F)F)cc3)ccc2O[C@@H]1CN(C)S(=O)(=O)c1cn(C)cn1	-11
O=c1n(Cc2ccc(F)cc2)nc2n1-c1ccccc1SC2	28
C[C@H]1CN([C@@H](C)CO)C(=O)c2cccc(NC(=O)CCCCCC(=O)Nc3ccccc3N)c2O[C@@H]1CN(C)C(=O)Nc1cccc2ccccc12	9
C[C@H](CO)N1C[C@H](C)[C@H](CN(C)Cc2ccc(C(F)(F)F)cc2)Oc2c(NS(C)(=O)=O)cccc2C1=O	3
COc1ccc(N2C(=O)CC(SCC(=O)Nc3ccc(F)cc3)C2=O)cc1 (stereo unspecified)	?
Cc1noc(C)c1S(=O)(=O)Nc1ccc2c(c1)C(=O)N([C@H](C)CO)C[C@H](C)[C@H](CN(C)CC1CCCCC1)O2	1
C[C@H](CO)N1C[C@H](C)[C@H](CN(C)C(=O)Nc2ccc3c(c2)OCO3)Oc2ccc(NC(=O)Nc3ccc4c(c3)OCO4)cc2CC1=O	-5
CCC(=O)Nc1ncc2c(n1)CC(C)(C)CC2=O	1
CC(=O)Oc1ccc(O)cc1	69
C[C@@H]1CN([C@H](C)CO)C(=O)Cc2cc(NC(=O)C3CCCCC3)ccc2O[C@@H]1CN(C)Cc1ccncc1	5
CCOC(=O)c1c(C)n(C)c2ccc(O)c(S(=O)(=O)c3ccc(C)cc3)c12	0
O=c1c(C=Nc2ccccc2)c(Nc2ccccc2)[nH]n1-c1ccccc1	102*
Nc1ccc(Br)cc1C(O)c1ccccc1 (stereo unspecified)	13
Cc1noc(C)c1S(=O)(=O)Nc1ccc2c(c1)C(=O)N([C@@H](C)CO)C[C@H](C)[C@@H](CN(C)Cc1ccc3c(c1)OCO3)O2	15
O=C(COc1ccc([N+](=O)[O-])cc1)Nc1ccc2oc(-c3cccc(Br)c3)nc2c1	-3
CCOC(=O)c1nonc1N	-16
C[C@@H]1CN([C@H](C)CO)C(=O)c2cc(NC(=O)Cc3cn(C)c4ccccc34)ccc2O[C@@H]1CN(C)Cc1ccc(C(=O)O)cc1	7
CC(C)NC(=O)Nc1cccc2c1O[C@H](CN(C)C(=O)Nc1cccc3ccccc13)[C@H](C)CN([C@@H](C)CO)C2=O	12
COc1ccc(C(=O)CSc2nnc(-c3ccc(OC)c(OC)c3)n2-c2ccc(C)cc2)cc1	39
Cc1sc(NC(=O)COc2ccc(Cl)cc2Cl)c(C(N)=O)c1C	46
C[C@@H]1CN([C@@H](C)CO)C(=O)c2cccc(NS(=O)(=O)c3cccs3)c2O[C@@H]1CN(C)S(=O)(=O)c1ccccc1	57

Screening results from PubChem.
